# NPYLR7 agonist: activates Aedes aegypti NPYLR7 receptor; HEK293T NPYLR7/Galpha15, GCaMP6s calcium fluorescence; activation, % at 10 µM; 270,000 compounds, 0.15% hits; in the data active means activation above about 40%;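 further: 0% = vehicle and 100% = reference agonist at the receptor; some compounds past the cut are filed as inactive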
# NPYLR7 agonist max-min: recorded beside NPYLR7 agonist, whose call it bears; activation, %; measured here: Max-Min RFU normalised activation; some inactives read as strong as hits;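 span of the calcium signal over five minutes; 0% = vehicle and 100% = native peptide agonist; compound fluorescence can raise it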
# * = called active by the depositor; & = joins results of further samples. Not all compounds are listed; rates above refer to the full screens.
SMILES,NPYLR7 agonist,NPYLR7 agonist max-min
COc1ccccc1-n1c(SCc2nc(C(=O)N3CCN(c4cccc(Cl)c4)CC3)cs2)nnc1-c1ccncc1,-9,-13
CCc1cc(N(C)CC2COCCO2)nc(N2CCOCC2)n1 (stereo not drawn),-4,-10
COc1cccc(CCc2ccccc2OCC[C@@H]2C[C@@H](O)CN2C)c1,-9,-13
CCc1cccc2c(C(CC(=O)N3CCOCC3)c3ccccc3C(F)(F)F)c[nH]c12 (stereo not drawn),16,30
CC(C)N(Cc1c(-c2ccccc2)noc1N1CCOCC1)C(=O)c1cccc(Br)c1,2,6
COc1ncc(CN2CCC(C3CCN(c4ncccn4)CC3)C2)cn1 (stereo not drawn),3,-2
COCCCNC(=O)CC1CSc2nc3c(cnn3-c3ccc(F)cc3)c(=O)n21 (stereo not drawn),2,1
Cc1ccc(CN(Cc2ccc3c(c2)OCO3)CC(C)O)s1 (stereo not drawn),-2,9
Nc1ccc2oc(-c3ccc(I)cc3)nc2c1,9,4
CC1=NC2=C(C(=O)CCC2)C(c2ccc(C)o2)C1C(=O)OC1CCCCC1 (stereo not drawn),7,7
CSCCCNC(=O)Cn1nnnc1CN1CCCC1,7&4,0&0
CC(=O)N1N=C(c2c(-c3ccccc3)c3cc(Br)ccc3[nH]c2=O)CC1c1ccco1 (stereo not drawn),-1,0
COc1ccccc1-c1coc2cc(O)ccc2c1=O,3&2,13&-5
Cc1ccccc1CC1(CO)CCCN(C(=O)Cn2nc3ccccc3n2)C1 (stereo not drawn),7,13
O=S(=O)(c1ccc2c(c1)OCCO2)N1CCCC1c1cccs1 (stereo not drawn),0,7
c1ccc2c(c1)CCCC2NCc1cn[nH]c1-c1cc2ccccc2o1 (stereo not drawn),7,4
COc1cccc(CCNC(=O)c2ccc(-n3nc(-c4cccc(C)c4)cc3N)cc2)c1,-9,-15
CCC(OC)C(=O)N(c1ccc(C#N)cc1C)C1CC1 (stereo not drawn),10,8
Brc1cnc2nc(-c3ccccc3)c(-c3ccccc3)nc2c1,-2,-3
Cc1ncsc1CCC(=O)N1CCc2onc(-c3ccccc3F)c2C1,18,10
O=C(Cc1ccc(Br)cc1)Nc1nnc(-c2ccsc2)s1,14,15
OC(COc1c(F)cc(Br)cc1F)CN1CCOCC1 (stereo not drawn),-2,-1
CN(C)c1cc(C(=O)Nc2ccc(C(=O)N3CCCCCC3)cc2)ccn1,3,2
CCOC(=O)c1c(NC(=O)Cn2cnc([N+](=O)[O-])n2)sc(C(C)=O)c1C,-9,-16
COc1cccc(C(=O)OC(C)C(=O)Nc2ccc(Cl)cc2Cl)c1OC (stereo not drawn),-2,-4
O=c1cc(CN2CCCC(CCc3c(F)cccc3F)C2)[nH]c(=O)[nH]1 (stereo not drawn),-1,-13
CCN(CC)C(=O)C(NC(=O)CC(C)C)C1CCN(C(=O)COC)CC1 (stereo not drawn),-3,4
CC(C)C(NS(=O)(=O)c1cccc(Cl)c1)C(=O)N1CCN(c2ccccc2)CC1 (stereo not drawn),15,6
Oc1cccc(CN2CCN(CC3CCCCO3)CC2)c1 (stereo not drawn),7,8
Cc1ccsc1C(=O)N1CCN(Cc2cc(=O)c(OCc3ccc(-c4ccccc4C#N)cc3)co2)CC1,2,5
CCCC(=O)Nc1nc(-c2ccc(NC(=O)c3ccco3)cc2)cs1,12,2
O=C(C1CCCC1)N1CCN(Cc2cccc(-c3noc(-c4cccc(Cl)c4)n3)c2)CC1,3,2
O=[N+]([O-])c1ccccc1/C=N\N1CCN(c2ccncc2S(=O)(=O)N2CCCCC2)CC1,1,3
CCC(C)N(Cc1cccc(OS(=O)(=O)CC)c1)C(=O)Nc1cccc(Cl)c1 (stereo not drawn),-1,6
CCOC(=O)N1CCN(C(c2ccc(OC)cc2)C2Sc3nc(CC)nn3C2=O)CC1 (stereo not drawn),-4,-8
O=c1c2nc(N3CCOCC3)sc2c(-c2ccccc2)nn1Cc1cccc2ccccc12,-2,-7
CC(=O)ON=C1CC(C)(C)NC(C)(C)C1,-4,-11
CCOC(=O)C1=C(C)N=C2SCC(=O)N2C1c1ccc(OC)cc1OC (stereo not drawn),9,6
Cc1cnc2c(c1SCc1ccc(C(F)(F)F)cc1)c(=O)n(C)c(=O)n2C,5,10
CN(C)c1ccc(NC(=O)Cn2cnc3c(-c4ccccc4)cn(C)c3c2=O)cc1,8,7
Cc1ccc(-n2nnnc2SCc2nc(-c3ccccc3)no2)c(C)c1,2,5
Cc1cccc(C(O)c2ncc(-c3ccc(F)cc3)[nH]2)c1C (stereo not drawn),1,1
CC1CCc2c(sc3ncnc(N4CCN(CCO)CC4)c23)C1 (stereo not drawn),-3,-3
COCc1c(C#N)c(NCCO)nc(C)c1[N+](=O)[O-],-21,-19
Cn1cnc2cc(C(=O)N3CCNCC3C(=O)NC3CC3)cnc21 (stereo not drawn),4,1
COC1(C)CC(NC(=O)CCOCC(F)(F)F)C1(C)C (stereo not drawn),6,5
COc1ccc2nc(SCc3ccc(C(=O)N4C5CCC4CC(Oc4ccc(F)cc4F)C5)cc3)[nH]c2c1 (stereo not drawn),20,4
CCOc1ccccc1CN1CCN(Cc2ccc(F)c(F)c2)CC1CCO (stereo not drawn),5,0
Cc1cc(C(=O)N(CCCN(C)C)c2nc3c(F)cc(F)cc3s2)no1,6,4
O=C(C1CCCN1C(=O)c1cccs1)N1CCC(c2nc3ccccc3o2)CC1 (stereo not drawn),8,6
# Remaining list, next part.
SMILES,NPYLR7 agonist,NPYLR7 agonist max-min
Cc1nc(SCCC(=O)Nc2ccc(C(F)(F)F)cc2)n[nH]1,-3,-4
CC(C)C/C=C(\CN1CCC2(CC1)CNC(=O)C2)c1ccccc1,1,-6
CC(C)N1CCN(C(=O)c2cc(CN3CCC(O)CC3)on2)CC1C (stereo not drawn),9,8
CC(C)c1cc(C(=O)N(Cc2ccc3c(c2)OCO3)C2CC2)n(C)n1,2,-5
O=C(Cc1cccc(C(F)(F)F)c1)NN1CCOCC1,9,2
Cc1ccc(CN2CCNC(=O)C2CC(=O)NCCc2cccs2)o1 (stereo not drawn),20,11
COc1ccc(CCNC(=O)c2cccn2Cc2cccnc2)cc1,1,17
COCCNC(=O)c1cc(N2CCN(CC(C)C)CC2)ccn1,6,3
CCc1cccc2c(C(CC(=O)NC3CCN(Cc4ccccc4)CC3)c3cccc(OC)c3)c[nH]c12 (stereo not drawn),5,15
Cn1cc(S(=O)(=O)Nc2ccccc2-n2ccc(C(=O)O)n2)cn1,10,7
CCSC1CCCCN(Cc2nccn2C)C1 (stereo not drawn),0,-4
CCOc1c(CNCc2ccco2)cc(Br)cc1OC,8,0
Cn1nccc1NC(=O)c1cccc(CN2CCC(Oc3ncccn3)CC2)c1,0,-2
CCOC(=O)CCC(=O)Nc1sc2c(c1C(=O)OCC)CCN(c1ccc(Cl)nc1)C2,6,3
CCc1nc2ccc(C(=O)NC3CCN(Cc4ccccc4)CC3)cn2c1N(C)Cc1ccncc1,2,-12
COc1ccc(C(CC(=O)N2CCN(Cc3ccccc3)CC2)c2cn(C)c3ccccc23)cc1OC (stereo not drawn),3,13
CC(=O)N1CCC(Oc2ccc(Cl)cc2C(=O)N2CCN(CC3CC3)CC2)CC1,3,-2
N#Cc1ccc(COC(CN2CCN(C(=O)c3cccc(C#N)c3)CC2)c2cccc(N3CCCC3)c2)cc1 (stereo not drawn),4,0
O=C(NCCc1cccs1)C1CCCc2ccn(CCOc3ccccc3)c21 (stereo not drawn),26,17
N#Cc1c(Nc2ccc(Cl)cc2)n[nH]c1N,5,8

# As entered above:
# Under NPYLR7 agonist max-min, CCc1cccc2c(C(CC(=O)NC3CCN(Cc4ccccc4)CC3)c3cccc(OC)c3)c[nH]c12 (stereo not drawn) has the entry 15
# Under NPYLR7 agonist, CCOc1ccccc1CN1CCN(Cc2ccc(F)c(F)c2)CC1CCO (stereo not drawn) has the entry 5

# Additional results follow:
SMILES,NPYLR7 agonist,NPYLR7 agonist max-min
O=c1[nH]c(CN2CCCCCC2)nc2sc3c(c12)CCC3,1,2
Cc1ccccc1-c1onc(C)c1C(=O)NCCSCc1ccco1,3,-2
Cc1nccn1CCN(C)Cc1cc2n(n1)CCNC2,12,10
O=C(O)c1c[nH]c2ccc(I)cc2c1=O,3,-1
Cc1cccc(-c2noc(CN(C)C(=O)c3cc(C(C)C)on3)n2)c1,5,-4
CC1(C)CCCC(N2CCC(n3nccc3NC(=O)Nc3ccccc3Cl)CC2)C1 (stereo not drawn),-4,-5
Cc1nc(CSc2nc(C)c(C)n2C(C)C2CC3CCC2C3)oc1C (stereo not drawn),-5,-3
COc1cccc(CSc2nnc(CNC(=O)Nc3ccc(F)cc3F)n2-c2ccc(Cl)cc2Cl)c1,2,-6
Nc1nc(N)nc(SCC(=O)N2CCCC2)n1,3,1
O=C(NCCN1CCCCC1)Nc1nnc(C(F)(F)F)s1,23,3
CCCCCNC(=O)c1ccc(OCCCCC)c(OCCCCC)c1,-9,-12
C[C@H](NC(=O)C1CC=CCC1C(=O)N1CCc2ccccc2C1)[C@H](O)c1ccccc1 (stereo partly drawn),1,-3
COCCNS(=O)(=O)c1c[nH]c(C(=O)OC)c1,5,3
COc1ccc(N2CCN(C(=O)c3cccc(Br)c3)C(C)C2=O)cc1OC (stereo not drawn),-10,-7
Cc1ccccc1CN1CCN(C(=O)NCc2ccccc2F)CC1,1,-1
Cn1cc(C#N)c(=O)n(CC(=O)N(Cc2ccccc2)CC(F)(F)F)c1=O,23,10
COCCN(Cc1cc(Cl)ccc1OCc1nc(CO)cs1)C(=O)C1CCCC1,1,12
COc1ccc(CNC(=O)N2CCN(C(=O)c3ccccc3)CC2)cc1,-13,-18
O=C(c1cc(-c2ccccc2F)nn1-c1cccc([N+](=O)[O-])c1)N1CCN(c2ccccc2F)CC1,14,9
CC(=O)N1CCC[C@H]1C(=O)N1CCC(n2nccc2NC(=O)Nc2ccccc2C)CC1,12&1,7&0
Cc1ccc(C2=NC3(CCCCC3)NC2=S)cc1,-10,-7
O=C(c1cnccn1)N1CCc2[nH]nc(C(c3ccccc3)c3ccccc3)c2C1,5,4
OC(COc1ccc(Cl)cc1)CSc1ccc(Br)cc1 (stereo not drawn),3,3
CCNC(=O)N1C[C@H](C(=O)NC)[C@H]2c3ccccc3N(CC3CC3)C(=O)[C@]21C,-8,2
Cc1ccccc1C(=O)N1CCN(c2ccc(-n3cccn3)nn2)CC1,7,4
OC(COc1ccccc1)CN1CCN(c2ncc(C(F)(F)F)cc2Cl)CC1 (stereo not drawn),1,-1
CCOc1ccc(-c2cc3c(=O)n(Cc4nc(-c5ccc(OC)cc5)no4)ccn3n2)cc1,-2,-2
CCOCCCn1c(SC(C)C(=O)N2CCCc3ccccc32)nc2ccccc2c1=O (stereo not drawn),-1,0
COCC(=O)N[C@H]1C[C@@H](C(=O)NCCc2cccc(Cl)c2)N(C)C1,-3,-5
CCC(C)c1ccc(S(=O)(=O)NCc2nncn2C(C)C)cc1 (stereo not drawn),1,-1

# An excerpt from above in order of length of the SMILES, descending.
SMILES,NPYLR7 agonist,NPYLR7 agonist max-min
O=C(c1cc(-c2ccccc2F)nn1-c1cccc([N+](=O)[O-])c1)N1CCN(c2ccccc2F)CC1,14,9
CCNC(=O)N1C[C@H](C(=O)NC)[C@H]2c3ccccc3N(CC3CC3)C(=O)[C@]21C,-8,2
C[C@H](NC(=O)C1CC=CCC1C(=O)N1CCc2ccccc2C1)[C@H](O)c1ccccc1 (stereo partly drawn),1,-3
CCOc1ccc(-c2cc3c(=O)n(Cc4nc(-c5ccc(OC)cc5)no4)ccn3n2)cc1,-2,-2
CC(=O)N1CCC[C@H]1C(=O)N1CCC(n2nccc2NC(=O)Nc2ccccc2C)CC1,12&1,7&0
COCC(=O)N[C@H]1C[C@@H](C(=O)NCCc2cccc(Cl)c2)N(C)C1,-3,-5
Cn1cc(C#N)c(=O)n(CC(=O)N(Cc2ccccc2)CC(F)(F)F)c1=O,23,10
CCOCCCn1c(SC(C)C(=O)N2CCCc3ccccc32)nc2ccccc2c1=O (stereo not drawn),-1,0
COc1ccc(N2CCN(C(=O)c3cccc(Br)c3)C(C)C2=O)cc1OC (stereo not drawn),-10,-7
OC(COc1ccccc1)CN1CCN(c2ncc(C(F)(F)F)cc2Cl)CC1 (stereo not drawn),1,-1
Cc1ccccc1C(=O)N1CCN(c2ccc(-n3cccn3)nn2)CC1,7,4
CCC(C)c1ccc(S(=O)(=O)NCc2nncn2C(C)C)cc1 (stereo not drawn),1,-1
Cc1ccccc1CN1CCN(C(=O)NCc2ccccc2F)CC1,1,-1
COCCNS(=O)(=O)c1c[nH]c(C(=O)OC)c1,5,3
OC(COc1ccc(Cl)cc1)CSc1ccc(Br)cc1 (stereo not drawn),3,3
Cc1ccc(C2=NC3(CCCCC3)NC2=S)cc1,-10,-7

# Further entries.
SMILES,NPYLR7 agonist,NPYLR7 agonist max-min
C(=NN1CCOCC1)c1ccsc1,5,3
COc1ccc2nc(SCc3ccc(Cl)cc3)[nH]c2c1,-6,-10
Cc1ccc(CNS(=O)(=O)c2c(C)noc2C)cc1,15,7
CC1CCCCN1C1CN(Cc2ccc(S(C)(=O)=O)cc2)C1 (stereo not drawn),2,29
CCCn1c(CN2CCCCC2CC)nc2c1c(=O)n(C)c(=O)n2C (stereo not drawn),14,8
COc1cccc(-n2cc(CN(C)Cc3nc(Cc4ccccc4)no3)cn2)c1,12,8
CC1(C(=O)NS(=O)(=O)c2ccc(Cl)s2)CCN1C(=O)c1ccc(C2CCCCC2)cc1 (stereo not drawn),-1,-2
C=CCn1c(SCC(=O)NCc2ccccc2)nnc1-c1cc(OC)cc(OC)c1,1,3
Nc1cc(=O)[nH]c(SCC(=O)NC2CCCC2)n1,6&7,16&3
CN(C)CCN1CCN(c2cccc(N)c2)CC1,14,9
Cc1cccc2c(CN3CCc4[nH]cnc4C3c3ccsc3)c[nH]c12 (stereo not drawn),-13,-15
CC1CN(C(=O)CSc2cn(CC(=O)N3CCOCC3)c3ccccc23)CC(C)O1 (stereo not drawn),-6,-7
Fc1c(CN2CCCC2)cccc1Oc1nccc2ccccc12,4,2
O=C(O)c1coc(CN(Cc2ccc(Cl)cc2)Cc2ccco2)n1,-3,5

# Bioassay records (PubChem)
